# Screening data deposited in PubChem BioAssay by National Center for Advancing Translational Sciences (NCATS).
# LASV entry inh – blocks Lassa virus binding to or entry into cells; actives 1.2% (n = 300,000); Lassa virus pseudotype entry inhibition, cell reporter; control for the full effect not named in the record; Potency, µM (titrated, usually from 37.9 µM), for the others: top-dose activity change, negative = inhibition, most hits filed as inhibitors; active means well fitted inhibition curve with a large enough effect; inconclusive means small, poorly fitted or top-dose-only effect, or effect the other way; inactive means flat fitted curve, though single readings scatter; tested in HEK293 cells; further: on the % scale 0 is the no-effect control and ±100 the full control effect; nearly all actives have a fitted effect of over 50% in size; luciferase read-out
# Cruzain inh noDet – blocks cruzain activity in detergent-free assay. AID 1476. P25779. Potency, µM, for inactives: max response, negative = inhibition, most hits filed as inhibitors. actives 2.3% (n = 200,000). purified cruzain, Z-FR-AMC fluorescence, no detergent;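 further: plate controls were enzyme without inhibitor for no effect and buffer without enzyme for full effect; nearly all actives have a fitted effect of over 40% in size; top concentration of the series not given in the record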
# Target sequence (P25779 123-467 limits assumed): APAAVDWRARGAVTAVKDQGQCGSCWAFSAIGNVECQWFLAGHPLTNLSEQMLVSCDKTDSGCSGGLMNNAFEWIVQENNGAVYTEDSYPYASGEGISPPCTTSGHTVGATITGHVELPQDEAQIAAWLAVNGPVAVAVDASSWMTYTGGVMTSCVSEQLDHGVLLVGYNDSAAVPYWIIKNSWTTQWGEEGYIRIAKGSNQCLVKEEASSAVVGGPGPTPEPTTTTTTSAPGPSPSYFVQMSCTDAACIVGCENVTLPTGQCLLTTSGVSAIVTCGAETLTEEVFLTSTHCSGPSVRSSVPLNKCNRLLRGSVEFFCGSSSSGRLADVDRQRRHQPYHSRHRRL
#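 Detergent-free condition (0.00005% Triton X-100) in acetate buffer pH 5.5 with DTT. 1.5 nM enzyme and compound were pre-mixed 15 min, then 2 uM Z-FR-AMC substrate added; reaction progress from fluorescence change between first and third reads (60 s).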
# SARS PLP yeast – inhibitors of SARS-CoV papain-like protease in yeast; S. cerevisiae expressing SARS-CoV PLpro, growth rescue; control for the full effect not named in the record; Potency, µM (top dose mostly 32.9 µM), for inactives: top-dose activity, positive = growth rescue; actives 0.19% (n = 330,000); active means well fitted rising curve with a large enough effect; inconclusive means small, poorly fitted or top-dose-only effect; inactive means no such curve, though single readings can be large or run the other way; further: 0% is about no effect; nearly all actives have a fitted effect of over 55% in size; growth read by luminescence after 48 h
# NS1 function inh – inhibitors of influenza NS1 protein function; S. cerevisiae slowed by influenza A NS1, growth recovery by OD600; Potency, µM (titrated, usually from 46.1 µM), inactives show at the top dose activity, positive = more growth; actives 0.4% (n = 270,000); active means well fitted rising curve with a large enough effect; inconclusive means small, poorly fitted or top-dose-only effect; inactive means no such curve, though single readings can be large or run the other way; further: nearly all actives have a fitted effect of over 50% in size
#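 OD600 was taken as the measure of yeast growth restored by compound in an NS1-expressing S. cerevisiae strain. Cells had been washed out of glucose medium and diluted 1:100 into galactose -URA medium, pH 6.0.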
# MARV entry inh – inhibitors of Marburg virus binding or cell entry; AID 540276; Marburg virus pseudotyped entry inhibition, cell reporter; control for the full effect not named in the record; about a third of the inactives were read at about 46 µM; Potency, µM (series often up to 37.8 µM), inactives show at the top dose activity change, negative = inhibition, usual class: inhibitors; actives 1.8% (n = 300,000); active = well fitted inhibition curve with a large enough effect; inconclusive = small, poorly fitted or top-dose-only effect, or effect the other way; inactive = flat fitted curve, though single readings scatter; tested in HEK293 cells; about a fifth of its hits are not listed in these tables; further: on the % scale 0 is the no-effect control and ±100 the full control effect; luciferase read-out
# StopGo reporter – lowers the luciferase signal of an FMDV 2A StopGo reporter. actives 1.2% (n = 410,000). human cells with a luciferase reporter of 2A StopGo recoding; control for the full effect not named in the record. Potency, µM (top dose mostly 57.9 µM), for inactives: at the top dose signal change, negative = less light; active = well fitted falling curve with a large enough effect; inconclusive = small, poorly fitted or top-dose-only effect; inactive = no such curve, though single readings can be large or run the other way; tested in HEK293T cells; further: on the % scale 0 is the no-effect control and ±100 the full control effect; nearly all actives have a fitted effect of over 45% in size; luciferase light after 4 h
# Cruzain inh Det – blocks cruzain activity in presence of Triton detergent; P25779; purified cruzain, Z-FR-AMC fluorescence, 0.01% Triton; Potency, µM, for the others: max response, negative = inhibition, most hits filed as inhibitors; actives 0.43% (n = 200,000); AID 1478;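 further: plate controls were neutral wells for no effect and buffer without enzyme for full effect; nearly all actives have a fitted effect of over 40% in size; top concentration of the series not given in the record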
#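 Detergent-containing arm of a paired screen for aggregation-based inhibition: 0.01% Triton X-100 present. Cruzain at 1.5 nM cleaved 2 uM Z-FR-AMC at pH 5.5 with 5 mM DTT; AMC fluorescence gain over 60 s measured activity.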
# RE007 growth inh – less growth of the S. pombe RE007 Vpr strain. S. pombe RE007 Vpr strain, BacTiter-Glo ATP luminescence, 24 h; control for the full effect not named in the record. Potency, µM (doses to about 92.2 µM), without a hit: top-dose activity change, negative = less growth. actives 0.21% (n = 360,000). AID 651644; active = well fitted falling curve with a large enough effect; inconclusive = small, poorly fitted or top-dose-only effect; inactive = no such curve, though single readings can be large or run the other way;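 further: on the % scale 0 is the no-effect control and ±100 the full control effect; nearly all actives have a fitted effect of over 50% in size; the assay follows cell death caused by Vpr and the record does not say whether a fall means rescue or toxicity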
#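 Fission yeast RE007 carrying one integrated HIV-1 vpr copy, seeded at OD 0.01 in PMG+AL medium with 23 nL pinned compound. Grown 24 h at 30 degrees; viability read by BacTiter-Glo luminescence after 5 min.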
# * marks the source's active call; other numbers are inactive results; ? = inconclusive; nt = not tested or not shown; & = joins results of further samples; [ ] = another dose, or the depositor's remark. Unless noted, the call rests on the fitted dose curve; in most records, active means well fitted curve in the direction sought with a large enough effect; inconclusive means small, poorly fitted or top-dose-only effect, or another doubt; inactive means no such curve, though single readings can be large; an effect the other way counts as inactive or inconclusive. Potency means the concentration at half of the fitted maximal effect.
SMILES,LASV entry inh,Cruzain inh noDet,SARS PLP yeast,NS1 function inh,MARV entry inh,StopGo reporter,Cruzain inh Det,RE007 growth inh
COc1ccc(CNC(=O)C(c2cccs2)N(C(=O)c2csnn2)C2CC2)cc1 (configuration not stated),5%,8%,1%,1%,-10%,-8%,-0.5%,4%
N/C(=N\OC(=O)c1ccc(Cl)cc1Cl)c1ccc(Cl)cc1,?,?,-31%,-193%,?,0%,4.2%,?
O=C(C1CC(=O)N(c2ccc(F)cc2)C1)N1CCN(c2ccc(F)cc2)CC1 (configuration not stated),-7%,nt,-1%,-13%,-3%,-28%,nt,-7%
Cc1ccc(CN(Cc2ccc(C)o2)C(=S)NCC(=O)O)cc1,7%,-5%,4%,-2%,-4%,-10%,-3.7%,13%
COC(=O)c1c(N)sc(Cc2ccccc2)c1C,7%[46.1 µM],nt,-3%,-3%,-2%[46.1 µM],-17%,nt,4%
C=CCN1C(C(=O)c2ccccc2)=C(OC(=O)COc2ccccc2)c2ccccc2S1(=O)=O,?,0%,-94%,-47%,?,-17%,-12%,?
O=C(O)CS(=O)(=O)CC(=O)NCc1cccc(C(F)(F)F)c1,15%[46.1 µM],nt,0%,0%,-4%[46.1 µM],-7%,nt,-13%
CC(=O)N1CCN(CC(=O)Nc2ccc(C)c(F)c2)CC1,nt,nt,0%,4%,nt,1%,nt,25%
Cc1c(NC(=O)CSc2nnc(-c3ccncc3)o2)c(=O)n(-c2ccccc2)n1C,13%[46.1 µM],nt,4%,nt,?,-2%,nt,0%
O=C(N/N=C/c1ccc(O)cc1O)c1ccncc1,nt,nt,7%,-3%,nt,11%,nt,6%
CCCCNC(=O)CN(c1ccc(Cl)c(Cl)c1)S(C)(=O)=O,7%,6%,-2%,0%,?,-8%,-1.4%,1%
Cc1nn2c(NCC(C)C)c3c(nc2c1-c1ccccc1)CCC3,-18%,-18%,5%,-47%,?,-9%,-1.5%,16%
CS(=O)(=O)Nc1ccccc1C(=O)c1ccccc1,10%,-3%,0%,-4%,4%,7%,-3.4%,-1%
OC(c1cc(C(F)(F)F)nc2c(Cl)cc(Cl)cc12)C1CCCCN1 (configuration not stated),?,nt,-2%,-1%,?,-10%,nt,-20%
CCCCOP(=O)(CN1CCOCC1)OCCCC,1%,4%,0%,0%,9%,-8%,0.8%,34%
CC(C)/C(=N\NC(=O)Nc1ccccc1)c1ccccc1,nt,-12%,-4%,-8%,-1%,-15%,3.0%,-3%
CCOc1cc(C(=S)N2CCOCC2)cc(Br)c1OS(=O)(=O)c1ccccc1,nt,nt,-6%,8%,nt,68%[activator],nt,24%
Nn1c(SCC(=O)NCc2ccccc2)nnc1C1CC1,-2%,-9%,-2%,-3%,-16%,-9%,3.6%,-3%
Cc1cc(C)n(-c2cc(N3CCN(S(=O)(=O)c4ccc5ccccc5c4)CC3)ccc2[N+](=O)[O-])n1,-24%,?,1%,?,-18%,-19%,0.3%,22%
Cc1c(NC(=O)COC(=O)C2(c3ccc(F)cc3)CCCC2)c(=O)n(-c2ccccc2)n1C,-11%,nt,1%,14%,-5%[14.2 µM],?,nt,5%
CCN(C(=O)COC(=O)c1ccc2c(c1)OCO2)c1ccccc1,-6%,nt,9%,nt,?,12%,nt,11%
CCN(CC(=O)Nc1cc(Cl)ccc1C)C(=O)CN1C(=O)NC2(CCCC2)C1=O,-3%,nt,0%,nt,2%,-4%,nt,2%
Cc1ccc(S(=O)(=O)NCC(=O)OC(C)C(=O)c2ccccc2)cc1 (configuration not stated),1%,nt,0%,nt,25%,-3%,nt,3%
COc1cccc2c(=O)n(CC(=O)Nc3ccccc3)ccc12,nt,4%,2%,4%,nt,3%,2.4%,8%
CCCN1C(=O)c2ccc(C(=O)Nc3cc(C)ccc3O)cc2C1=O,?,nt,6%,20%,-5%,-11%,nt,?

# (continued)
SMILES,LASV entry inh,Cruzain inh noDet,SARS PLP yeast,NS1 function inh,MARV entry inh,StopGo reporter,Cruzain inh Det,RE007 growth inh
Cc1c(C(=O)Nc2cccc3cccnc23)oc2ccccc12,?,-14%,-23%,-3%,-28%,nt,-0.6%,-1%
CCc1cc2c(=O)n(CC)c(SC(C)C(=O)Nc3c(C)n(C)n(-c4ccccc4)c3=O)nc2s1 (configuration not stated),0%,1%,-8%,9%,8%,-2%,1.6%,8%
Cc1c(CCC(=O)O)c(=O)oc2cc3oc4c(c3cc12)CCCC4,?,nt,-5%,-1%,?,?,nt,-9%
Cc1cc(OCCCC(=O)NC2=NCCS2)ccc1Cl,-15%,3%,-17%,-6%,2%,5%,-4.3%,-15%
O=C(O)c1cc(-c2ccc3c(c2)OCO3)nc2ccccc12,1%,-6%,-4%,-9%,-3%,38%[activator],2.2%,-17%
O=C(Nc1ccc(Cc2ccncc2)cc1)c1ccc(N2CCOCC2)c([N+](=O)[O-])c1,?,nt,-1%,nt,-24%[46.1 µM],-30%,nt,-4%
COc1cc(/C=N/Nc2cc(C)nc(NS(=O)(=O)c3ccccc3)n2)ccc1O,-23%,nt,0%,0%,?,58%[activator],nt,8%
COC(=O)CSc1nsc(SCC(=O)OC)c1C#N,-2%,4%,-9%,-13%,3%,nt,5.9%,-8%
COc1cc([N+](=O)[O-])ccc1NC(=O)CCCOc1cccc(C)c1C,0%,6%,-12%,-3%,2%,8%,-2.8%,-14%
Cn1c(=O)c2[nH]c(C=Cc3ccc4c(c3)OCO4)nc2n(C)c1=O,14%,nt,nt,nt,1%,-7%,nt,11%
COC(=O)Cc1c(C)c2ccc(OCC(=O)N(C)C3CCS(=O)(=O)C3)cc2oc1=O (configuration not stated),13%[46.1 µM],nt,8%,3%,13%[46.1 µM],3%,nt,7%
O=c1[nH]ncn1-c1cccc(C(F)(F)F)c1,-25%,1%,-4%,8%,-5%,-16%,0.5%,-13%
O=C(CCCCCn1c(=S)[nH]c2cc3c(cc2c1=O)OCO3)N1CCN(C(=O)c2ccco2)CC1,17%,?,-1%,-13%,-2%&10%,-1%,-0.3%,-5%
CN(Cc1ccccc1F)C(=O)c1ccc(Oc2ccccc2)cc1,nt,nt,-3%,-55%,nt,32%[activator],nt,-7%
CC1CN(S(=O)(=O)c2ccc(C(=O)Nc3nnc(-c4ccccn4)o3)cc2)CC(C)O1 (configuration not stated),9%[46.1 µM],nt,-2%,nt,-13%[46.1 µM],-7%,nt,14%
O=C(NC1CCCC1)C1CCN(C(=O)c2ccccc2Cl)CC1,6%,nt,0%,-14%,20%[46.1 µM],-3%,nt,7%
CC1CC(C)CN(S(=O)(=O)c2cc3c(cc2Cl)NC(=O)CO3)C1 (configuration not stated),nt,nt,-6%,18%,nt,-25%,nt,-2%
COC(=O)c1ccc(C2c3c(-c4ccc(Br)cc4)n[nH]c3C(=O)N2c2ccc(Cl)cc2)cc1 (configuration not stated),?,16µM*,nt,nt,?,?,-0.9%,nt
CCN(CC)CCNC(=O)c1cc2c(-c3cccc(OC)c3)nn(C)c2s1,-5%&-24%[46.1 µM],-4%,2%,3%,?,0%&7%,-6.7%,-16%
C[C@H](C(=O)CC(=O)OC(C)(C)C)[C@H](O)c1ccc(C(F)(F)F)cc1,nt,nt,-1%,19%,nt,?,nt,-10%
CCOC(=O)C1=C(C)N(C)C(C)=C(C(=O)OCC)C1c1ccccn1,2%,4%,2%,-7%,-4%[46.1 µM],2%,1.7%,25%
COc1ccccc1C(=O)Nc1nnc(S(=O)(=O)N2CCN(c3ccc(F)cc3)CC2)s1,21%&-3%[46.1 µM],-2%,1%,11%,-7%&-7%[46.1 µM],6%&18%,-1.5%,5%
CC(C)c1ccc(NC(=O)Cn2nnc(C(=O)NCc3cccs3)c2N)cc1,4%[46.1 µM],-7%,nt,nt,-22%[46.1 µM],3%,0.3%,nt
CCn1c(Cc2c(C)[nH]c3ccccc23)nnc1SCC(=O)NCc1ccccc1,15%,10%,-11%,-2%,3%,-8%,0.8%,2%
Fc1ccc(CN2CCC(Cc3ccccc3)CC2)cc1F,nt,nt,-1%,-9%,nt,-12%,nt,-1%

# (cont.)
SMILES,LASV entry inh,Cruzain inh noDet,SARS PLP yeast,NS1 function inh,MARV entry inh,StopGo reporter,Cruzain inh Det,RE007 growth inh
COc1ccc(C(=O)N2CCOCC2)cc1Br,-3%,-3%,-2%,5%,-3%,-8%,-0.3%,4%
CCN(CC)S(=O)(=O)c1ccc2c(c1)c(=O)c(C(=O)NCCN(C)CCc1ccccc1)cn2C,?,-5%,5%,4%,?,-11%,-9.1%,-13%
CCOC(=O)c1scc(-c2ccc(C)cc2)c1S(=O)(=O)N1CCN(c2ccccc2)CC1,7%[46.1 µM],15%,nt,nt,nt,10%,-2.1%,nt
Cc1cc(C)n(CC(C)NC(=O)c2cc(COc3ccc(F)c(F)c3)on2)n1 (configuration not stated),nt,nt,?,-23%,nt,49%[activator],nt,-2%
CC(C)C(NCc1c(Cl)cccc1Cl)C(=O)O (configuration not stated),-5%,1%,?,-15%,2%,11%,1.5%,11%
COc1ccc(NS(=O)(=O)c2cc(C(=O)N3CCN(C/C=C/c4ccccc4)CC3)ccc2C)cc1,?,nt,2%,nt,?,0%,nt,5%
CO/N=C/C(C#N)=C/c1ccc(OC)cc1,5%[46.1 µM],nt,-3%,-1%,17%[46.1 µM],26%,nt,-4%
O=C(Cn1c(S(=O)(=O)Cc2ccccc2)nc2ccccc21)N1CCCCC1,nt,-8%,0%,-1%,nt,-6%,6.9%,-10%
CCCSc1nnc2n(-c3ccccc3OC)c(=O)c3c4c(sc3n12)CCC4,?,?,2%,-4%,-21%,-12%,-5.9%,12%
CC(C)CNC(=O)C(=O)N/N=C/c1cccs1,?,-7%,-2%,-7%,9%,69%[activator],1.0%,-4%
Cc1ccccc1C(=O)c1c[nH]c(C(=O)N=CN(C)C)c1,nt,nt,-1%,2%,-29%[46.1 µM],3%,nt,1%
O=C(NCC1COc2ccccc2O1)C1CCN(S(=O)(=O)c2cccc3nsnc23)CC1 (configuration not stated),-10%,-1%,2%,-12%,-4%&-21%,?,0.8%,0%
COc1ccc(C(=O)NCCn2cc(SCC(=O)NCC3CCCO3)c3ccccc32)cc1 (configuration not stated),nt,nt,-5%,-7%,nt,?,nt,-8%
